H5N1 CPE: MDCK cell protection from H5N1 avian flu | cytopathic effect, luminescence, 72 h; active compounds read high; no value below 0 was filed and about half of the inactive calls have no number; reference of the scale not given here | inhibition, % at 50 µM | actives 0.07% (n = 96,000); in the data active = inhibition above about 25%
* = called active by the depositor; i = inactive.

SMILES	H5N1 CPE
Cn1c(N2CCNCC2)nc2ccccc21	0.1
O=C(COC(=O)CCNS(=O)(=O)c1cccc(C(F)(F)F)c1)NC(=O)NC1CCCCC1	0.1
COC(=O)c1ccc(NC(=O)CN2CCN(c3ccc(Cl)cc3)CC2)cc1	i
COCCn1c(COC)nc2ccccc21	i
CC(C)Oc1ccc2ccccc2c1C=O	i
O=C(N/N=C/c1ccc2c(c1)OCO2)c1ccccn1	0.9
CN1C(=S)SC(/[N+]([O-])=C/c2cccnc2)C1(C)C (stereo unspecified)	0.7
Cc1cc(C)c2ccc(N)nc2c1O	i
CNC(=O)C1=NCCCc2cc(OC)c(OC)cc21	i
O=C(NCC1CCCO1)c1nn2c(c1Cl)NC(c1ccc(F)cc1)CC2C(F)(F)F (stereo unspecified)	0.2
CNC(=O)c1ccccc1F	6.1
Cc1cc(C)nc(NN2C(=O)/C(=C/c3ccccc3)SC2=S)n1	i
CCS(=O)(=O)n1nc(-c2ccccc2)nc1NCc1ccco1	0.5
Cc1ccccc1NC(C)C(=O)N/N=C/c1ccccc1OCc1cccc(Br)c1 (stereo unspecified)	1.1
CCC(c1nnnn1CCc1ccccc1)N1CCN(c2ccc(OC)cc2)CC1 (stereo unspecified)	i
CCCCn1nnnc1SCC(=O)c1cc(Cl)ccc1OC	1.9
CCc1ccc(-n2c(=O)c3c(C)c(C(=O)N(C)C)sc3n(CC(=O)NCc3ccco3)c2=O)cc1	0.2
Cc1nn(-c2cc(N3CCCCCC3)ccc2[N+](=O)[O-])c(=O)c2ccccc12	i
COc1ccc(-c2nnc(SCc3c(C)noc3C)n2N)cc1OC	0.7
CCn1c(SCC(=O)Nc2sc3c(c2C#N)CCCC3)nnc1-c1ccco1	1.8
O=C1CC(c2ccco2)CC(O)=C1C=Nc1cc(Cl)cc(Cl)c1 (stereo unspecified)	0.2
Cc1ccc(-c2nc3ccccc3c(=O)n2-c2cc(C)ccn2)cc1	3.0
O=C(Nc1ccc(Cl)c(C(F)(F)F)c1)N1CCCC(O)C1 (stereo unspecified)	0.3
COc1cc(OC)c(C2SCCN2S(=O)(=O)c2ccc(F)cc2)cc1OC (stereo unspecified)	i
CCOc1cccc(=O)c2c(C)oc(C)c12	1.0
Cn1c(Cn2cnc3ccccc32)nc2ccccc21	1.9
O=C(CCN1C(=O)c2ccccc2C1=O)Nc1cccc(S(=O)(=O)N2CCCCC2)c1	0.4
COC(=O)c1cc2occc2n1CC(=O)Nc1cc(OC)cc(OC)c1	1.0
O=C(NC1CCCC1)C(c1cccs1)N(CC1CCCO1)C(=O)Cc1cccs1 (stereo unspecified)	i
CCCCC1(Cc2ccc(OC)c([N+](=O)[O-])c2)C(=O)N(c2ccccc2)N(c2ccccc2)C1=O	1.9
Cc1noc(C)c1C(=O)N1CCc2ccccc21	0.5
CCN1CCN(c2cc(C)c3cc(NC(=O)c4ccncc4)ccc3n2)CC1	1.1
O=C(Cn1cccc1)N1CCN(c2ccc(F)cc2)CC1	0.4
Cc1nn(-c2ccccc2)c2c1C1(C(=O)N(C(C)C)c3ccccc31)C(C#N)=C(N)O2 (stereo unspecified)	0.3
CCn1c(CNc2ccc(C(=O)O)cc2)nc2ccccc21	i
COc1ccc2ccccc2c1CN1CCN(Cc2ccccc2)CC1	0.6
COC(=O)/C=c1/s/c(=C(\C#N)C(=O)NCc2ccco2)n(-c2ccccc2)c1=O	i
CCOc1cc(-c2nc3c(C)cccn3c2NCC2CCCO2)ccc1O (stereo unspecified)	i
Cc1ccc(Nc2ccc(C(=O)O)cc2N)cc1	0.1
CN1CCN(S(=O)(=O)c2ccc(NC(=O)c3csc4ccccc34)cc2)CC1	i
NC(=O)c1c(NC(=O)CSc2nnc(-c3ccco3)n2-c2ccccc2)sc2c1CCC2	i
CCN(CC)C(=O)c1sc(NC(=O)Cc2ccc(OC)cc2)c(C#N)c1C	i
C=CCn1c(SCCCC)nc(O)cc1=O	i
O=C(Nc1cccn(Cc2c(Cl)cccc2Cl)c1=O)c1ccccc1Cl	4.2
COc1ccc(-c2nsc3c(N4CCCCC4)ncnc23)cc1	i
CCOc1cccc(N2C(=O)CC(N3CCN(c4nc5ccccc5s4)CC3)C2=O)c1 (stereo unspecified)	i
O=C(c1ccc2c(c1)OCO2)N(c1ccc(Cl)cc1)C1C=CS(=O)(=O)C1 (stereo unspecified)	0.5
CCc1ccc(OCC(=O)N(C)C)c(Br)c1	0.6
Cc1nn(-c2ccc(F)cc2)c(C)c1NS(=O)(=O)c1ccc(Cl)cc1	1.6
O=C(NC1CC1)C1CCCN1S(=O)(=O)c1ccc2ccccc2c1 (stereo unspecified)	i
COc1ccc2c(c1)c(=O)oc1cc(OCC(=O)N3CCC(C)CC3)ccc12	0.3
Cc1cc(C)c(C#N)c(SC2CCCCC2=O)n1 (stereo unspecified)	0.9
Cc1cccc(NC(=O)CSc2nc3ccc(NC(=O)CSc4nnnn4-c4ccccc4)cc3s2)c1C	i
O=S(=O)(CCc1nc2ccccc2s1)c1ccc2ccccc2c1	0.5
CCOC(=O)CN1C(=O)C(O)(CC(=O)c2ccco2)c2ccccc21 (stereo unspecified)	0.2
CC1(C)Cc2nc(N3CCOCC3)c(C#N)cc2CO1	0.5
CCOC(=O)N1CCN(c2c(NCCc3ccc(OCC)c(OCC)c3)c(=O)c2=O)CC1	0.6
CCOc1ccc(C(=O)Nc2nnc(C)s2)cc1OCC	2.5
Cc1ccc(S(=O)(=O)NCC(=O)N(CC(=O)NCC2CCCO2)C2CCCC2)cc1 (stereo unspecified)	i
COC(=O)c1ccc(-c2ccco2)n1Cc1cccc(C)c1	0.5
Next section
SMILES	H5N1 CPE
CNC(=O)COC(=O)c1[nH]c(C)c(C(C)=O)c1C	i
O=C(CC(c1ccccc1)c1ccccc1O)NCc1ccco1 (stereo unspecified)	0.6
C/C(Cl)=C/Cn1c(SC(C)C)nc2c1c(=O)[nH]c(=O)n2C	3.6
CNc1nc(SCc2ccccc2)nc(N2CCOCC2)n1	i
CC1CCCC(n2c(=S)[nH]c3ccccc3c2=O)C1C (stereo unspecified)	i
COc1ccc(S(=O)(=O)C(C#N)c2nc3ccccc3nc2N2CCCCC2)cc1 (stereo unspecified)	2.1
O=P(c1cccs1)(c1cccs1)c1cccs1	i
CCSc1nc2c(c(=O)[nH]c(=O)n2C)n1Cc1ccc(Cl)cc1	2.2
CCOCc1nnc(NC(=O)c2cccs2)s1	1.5
Cc1ccc2cc(COC(=O)c3ccco3)c(=O)[nH]c2c1	1.1
CCOC(=O)C1CCCN(C(=O)CNS(=O)(=O)c2ccc(Br)s2)C1 (stereo unspecified)	i
Cn1c(N)c(C(=O)COC(=O)c2ccco2)c(=O)n(C)c1=O	5.6
Cc1cc2nc(-c3ccco3)cc(C(F)(F)F)n2n1	i
CCn1c2ccccc2c2cc(NC(=O)COC(=O)C3CCC(=O)N3)ccc21 (stereo unspecified)	2.1
O=c1cc(N2CCN(c3cccc(Cl)c3)CC2)[nH]c(=O)n1C1CCCCC1	i
O=C(c1cc(-c2ccccn2)nc2ccc(Br)cc12)N1CCc2ccccc2C1	0.8
Cc1cc2c(c(=O)n1CCN(C)C)C(c1ccccc1Br)C(C#N)=C(N)O2 (stereo unspecified)	0.7
COc1ccccc1S(=O)(=O)Cc1ccc(C(=O)N2CCN(c3ccc(C)cc3)C(C)C2)o1 (stereo unspecified)	1.1
CC1(C)CC(=O)c2sc(NC(=O)c3ccco3)nc2C1	1.8
O=C(Nc1ccc2c(c1)C(=O)N(CC1CCCO1)C2=O)c1cccc(Br)c1 (stereo unspecified)	0.9
Cc1ccc(S(=O)(=O)N2CCCN(S(=O)(=O)c3ccc4c(c3)OCCO4)CC2)cc1	0.5
O=C(Nc1cc(-c2nn(CC(=O)N3CCCCC3)c(=O)c3ccccc23)ccc1N1CCOCC1)c1ccc(Cl)cc1	0.1
COC(=O)c1[nH]c2ccccc2c1NC(=O)CCN1CCSCC1	0.2
COc1ccc(Nc2ncnc3c2cnn3Cc2ccccc2)cc1OC	i
COC(=O)COc1ccc(S(=O)(=O)Nc2ccc(C(N)=O)cc2)cc1Cl	i
Cc1nnc(Nc2ccc(C(=O)N3CCOCC3)cc2)c2ccccc12	i
COCCn1c(=S)[nH]c2cc(C(=O)N3CCN(c4ccccc4OC)CC3)ccc2c1=O	i
N=C1/C(=C/c2cccs2)C(=O)N=C2SN=C(SCc3ccccc3)N12	i
O=C(CN1CCN(C(=O)c2ccco2)CC1)Nc1ccccc1-c1ccccc1	3.7
C=CCOCCN1C(=O)C2C(c3ccccc3)C=CC(c3ccccc3)C2C1=O (stereo unspecified)	2.0
CCOC(=O)C1CCN(C(=O)c2ccc(Cl)c(S(=O)(=O)N3CCOCC3)c2)CC1	0.1
COc1ccc(-c2cc(C(F)(F)F)nc(SCC(=O)Nc3cc(C)on3)n2)cc1OC	i
CCn1c(SCC(=O)Nc2nccs2)nnc1-c1ccc(S(=O)(=O)N2CCCCCC2)cc1	2.4
CSc1ccccc1NC(=O)c1cccnc1	0.0
O=C(CCC1CCCCC1)Nc1ccc(S(=O)(=O)Nc2nccs2)cc1	i
O=C(NCC1CCCO1)c1ccc(S(=O)(=O)N2CCCCC2)cc1 (stereo unspecified)	0.9
COc1ccc(NC2=NCC(=O)N2c2ccccc2F)cc1	i
CC(C)OC(=O)/C(=C\c1ccc2c(c1)c1ccccc1n2C)NC(=O)c1ccccc1	3.4
CCOC(=O)Cc1nnc(NC(=O)COc2ccc(C)cc2)s1	0.5
CCc1ccc(NC(=O)C(CC)Sc2nc3cc4c(cc3c(=O)n2Cc2ccco2)OCO4)cc1 (stereo unspecified)	i
Oc1cccc(C=NCc2ccccc2)c1O	i
Cc1ccccc1NC(=O)CCN1CCN(Cc2ccccc2)CC1	i
Cc1oc2ccc(OCc3ccc(F)cc3)cc2c1C(=O)O	i
CCC(=O)Nc1ccccc1Oc1ccccc1	i
CCOC(=O)c1c(C)[nH]c(C)c1C(=O)CN1C(=O)NC(CC(C)C)C1=O (stereo unspecified)	0.5
Cc1ccc(C)c(OCC(O)CN2C(C)CCCC2C)c1 (stereo unspecified)	0.4
CS(=O)(=O)N(CC(=O)NCc1ccco1)c1ccccc1Cl	i
Cc1cc(C)c(S(=O)(=O)c2ccccc2C)c(Cl)n1	0.1
Nc1nc(NCc2ccccc2)nc(Nc2cccc(F)c2)c1[N+](=O)[O-]	2.1
CCC(=O)N1CCc2cc(S(=O)(=O)CCC(=O)NCc3cccs3)ccc21	0.7
COc1cccc2cc(C(=O)N3CCN(C/C=C/c4ccccc4)CC3)c(=O)oc12	0.0
CCN1C(=O)C(CC(=O)Nc2ccc(OC)cc2)N(Cc2cccnc2)C1=S (stereo unspecified)	i
O=C1C2C3C=CC(C3)C2C(=O)N1CC1CCCO1 (stereo unspecified)	0.2
O=S(=O)(c1ccccc1)c1ccc(NCc2ccco2)cc1	i
COc1ccc(N2CCN(/C(=N\S(=O)(=O)c3ccccc3)Nc3nc(C)cc(C)n3)CC2)cc1	0.8
CC1(C)Cc2nc3nc(SCC(=O)NCCc4ccccc4)n(-c4ccccc4)c(=O)c3cc2CO1	0.8
N#C/C=C1\n2c(nc3ccccc32)OC12CCCCC2	1.2
COc1ccc(C(=O)O/N=C(\C)c2ccccc2)cc1	2.9
Cn1cccc1C(=O)OCC(=O)Nc1ccc2c(c1)CCC2	i
Cc1cc(=O)oc2ccc(OCC(=O)O)cc12	0.6
Further results follow:
SMILES	H5N1 CPE
Cc1nnc(SCC(=O)Nc2ncc3c(n2)CC(C)(C)CC3=O)s1	1.5
O=C(NCCCN1CCOCC1)NC12CC3CC(CC(C3)C1)C2	i
C/C(CC(=O)Nc1ccccc1Br)=N\NC(=O)C(=O)N1CCCC1	i
O=C(Nc1nc2c(s1)CCc1ccccc1-2)c1ccco1	i
Cc1nc2ccc(S(=O)(=O)NCC(=O)N3CCC(C)CC3)cc2s1	1.2
Cc1cccc(CN2CCN(CC(=O)O)C2=O)c1	i
CS(=O)(=O)N(CC(=O)NCc1ccc2c(c1)OCO2)c1ccccc1	i
O=C(N/N=C1\CCCc2ccccc21)c1ccc([N+](=O)[O-])cc1Cl	1.5
Fc1ccc(CCNCc2ccc(Cl)c(Cl)c2)cc1	i
CN(C)c1ccc(C2CC(=O)NC3=C2C(=O)CC(C)(C)C3)cc1 (stereo unspecified)	0.5
COc1cccc(CNC(=O)C2CCCN(S(C)(=O)=O)C2)c1 (stereo unspecified)	1.1
COc1ccc(C(=N/O)/C(=N/O)c2ccc(OC)cc2)cc1	0.1
COc1cccc(C(c2sc3ncnn3c2O)N2CCc3ccccc3C2)c1 (stereo unspecified)	0.7

Molecules from the list above with two or more sulfur atoms:
SMILES	H5N1 CPE
CN1C(=S)SC(/[N+]([O-])=C/c2cccnc2)C1(C)C (stereo unspecified)	0.7
Cc1cc(C)nc(NN2C(=O)/C(=C/c3ccccc3)SC2=S)n1	i
CCn1c(SCC(=O)Nc2sc3c(c2C#N)CCCC3)nnc1-c1ccco1	1.8
COc1cc(OC)c(C2SCCN2S(=O)(=O)c2ccc(F)cc2)cc1OC (stereo unspecified)	i
O=C(NC1CCCC1)C(c1cccs1)N(CC1CCCO1)C(=O)Cc1cccs1 (stereo unspecified)	i
CN1CCN(S(=O)(=O)c2ccc(NC(=O)c3csc4ccccc34)cc2)CC1	i
NC(=O)c1c(NC(=O)CSc2nnc(-c3ccco3)n2-c2ccccc2)sc2c1CCC2	i
Cc1cccc(NC(=O)CSc2nc3ccc(NC(=O)CSc4nnnn4-c4ccccc4)cc3s2)c1C	i
O=S(=O)(CCc1nc2ccccc2s1)c1ccc2ccccc2c1	0.5
O=P(c1cccs1)(c1cccs1)c1cccs1	i
CCOCc1nnc(NC(=O)c2cccs2)s1	1.5
CCOC(=O)C1CCCN(C(=O)CNS(=O)(=O)c2ccc(Br)s2)C1 (stereo unspecified)	i
Cc1ccc(S(=O)(=O)N2CCCN(S(=O)(=O)c3ccc4c(c3)OCCO4)CC2)cc1	0.5
N=C1/C(=C/c2cccs2)C(=O)N=C2SN=C(SCc3ccccc3)N12	i
CCn1c(SCC(=O)Nc2nccs2)nnc1-c1ccc(S(=O)(=O)N2CCCCCC2)cc1	2.4
O=C(CCC1CCCCC1)Nc1ccc(S(=O)(=O)Nc2nccs2)cc1	i
CCC(=O)N1CCc2cc(S(=O)(=O)CCC(=O)NCc3cccs3)ccc21	0.7
Cc1nnc(SCC(=O)Nc2ncc3c(n2)CC(C)(C)CC3=O)s1	1.5
Cc1nc2ccc(S(=O)(=O)NCC(=O)N3CCC(C)CC3)cc2s1	1.2

Assay outcomes as filed in PubChem BioAssay.

These rows are one share of the data; rates above refer to the full screens.
